# Compound activity: PubChem, ICCB-Longwood Screening Facility, Harvard Medical School
# HCMV NEC inh – inhibitors of HCMV UL50-UL53 interaction, biochemical, HTRF; AID 1918969, 2023; normalized percent inhibition; inhibition, % (no concentration beside the values); HCMV UL50-UL53 nuclear egress complex (human cytomegalovirus); hit rate 0.15% among 190,000;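 active means both replicates at 50% or more, plus weaker picks with an unusually low signal ratio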;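 further: stock transfer was 100 nL into about 20 µL; 0% = negative control wells and 100% = wells with untagged competitor protein; inactives centre near -12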
# Sa growth 42C – S. aureus growth inhibition at 42 and 30 °C, primary screen, LtaS inhibitor project, RN4220, two temperatures; OD600, 20 h, 42 °C; active compounds read low; relative growth, % (concentration not given with the values); hit rate 0.53% among 170,000;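 active means growth at 42 °C up to 50% and 20 or more points under that at 30 °C, or under 10% at both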;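 further: 300 nL library stock went into each well; scaled to the means of positive and negative controls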
# GIV-Gai inh – inhibitors of GIV peptide binding to Galpha-i3, primary screen, biochemical, fluorescence polarization, FITC-GIV GBA peptide, rat Galphai3; Guanine nucleotide-binding protein G(i) subunit alpha-3 (Rattus norvegicus), P08753; 90 min; active compounds read low; scaled: aluminum fluoride 0%, vehicle 100%; percent of control (FP), % (no concentration beside the values); hit rate 0.42% among 210,000;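 active means replicate mean at 85% of control or lower, very high polarization wells dropped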;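 further: wells of about 15 µL received 100 nL stock; the first replicate is given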
# Target sequence (P08753 whole entry, looked up): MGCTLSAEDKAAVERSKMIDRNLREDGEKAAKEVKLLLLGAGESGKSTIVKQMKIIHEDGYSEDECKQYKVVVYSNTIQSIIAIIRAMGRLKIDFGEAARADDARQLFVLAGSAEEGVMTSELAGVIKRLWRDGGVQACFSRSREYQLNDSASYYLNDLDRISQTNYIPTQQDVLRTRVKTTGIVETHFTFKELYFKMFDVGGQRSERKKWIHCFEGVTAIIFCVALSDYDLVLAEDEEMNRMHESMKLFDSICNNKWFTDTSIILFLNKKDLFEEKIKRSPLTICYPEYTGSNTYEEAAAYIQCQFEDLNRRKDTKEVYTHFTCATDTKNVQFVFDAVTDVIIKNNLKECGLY
# Sa growth 42C second temp – also measured in Sa growth 42C; calls as there; relative growth, %; measured here: growth at 30 °C;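 optical density after 20 h as mean of two plates; 100% = untreated growth and lower means inhibition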
# Starred values were filed as active, the others as inactive; x = not tested or not shown; & = joins results of further samples.
SMILES,HCMV NEC inh,Sa growth 42C,Sa growth 42C second temp,GIV-Gai inh
CCCn1c(=O)c2ccccc2n2c(=O)n(CC(=O)Nc3ccc(OC)cc3)nc12,-6,x,x,109
O=C(O)c1c[nH]c2c(F)cccc2c1=O,x,119,97,104
Cc1ccc(CN(Cc2ccco2)S(=O)(=O)c2ccc(S(=O)(=O)NC3CC3)cc2)o1,-9,94,82,106
CC(=O)N1c2ccccc2NC2=C(C(=O)CC(C)(C)C2)C1c1ccc(-c2ccc([N+](=O)[O-])cc2C)o1 (centres undefined),-26,x,x,102
CCOC(=O)c1c(NC(=O)N2CCOc3ccc(C)cc32)sc2c1CCCC2,3,x,x,96
CC(NC(=O)Cn1nc(-c2ccccc2)ccc1=O)c1ccccc1 (centres undefined),x,112,79,102
Cc1cc2occ(CC(=O)Oc3ccc(-c4nnco4)cc3)c2cc1C,2,108,100,x
COc1ccc(-n2cc(C(=O)NC3CCCc4ccccc43)nn2)cc1 (centres undefined),-31,85,90,104
CC(C)n1c(=O)[nH]c2cc(C(=O)Nc3nccs3)ccc21,-18,85,61,104
COc1ccc(SCC(=O)c2cc(C)n(Cc3ccco3)c2C)cc1,-10,97,96,x

# Whole records, looked up by structure.
# CCCn1c(=O)c2ccccc2n2c(=O)n(CC(=O)Nc3ccc(OC)cc3)nc12 reads HCMV NEC inh: -6; Sa growth 42C: x; Sa growth 42C second temp: x; GIV-Gai inh: 109
# COc1ccc(SCC(=O)c2cc(C)n(Cc3ccco3)c2C)cc1 reads HCMV NEC inh: -10; Sa growth 42C: 97; Sa growth 42C second temp: 96; GIV-Gai inh: x

# Additional results follow:
SMILES,HCMV NEC inh,Sa growth 42C,Sa growth 42C second temp,GIV-Gai inh
CCCN(C(=O)Cn1ncc2c(=O)oc3ccccc3c21)c1cccc(C)c1,-8,105,81,104
COC(=O)CSc1sc(=O)sc1SC,-34,94,75,104
CNc1nc(N2CCc3ccccc32)ncc1F,x,128,66,107
CC(NCc1cccnc1)C12CC3CC(CC(C3)C1)C2 (centres undefined),x,102,88,100
O=C(CSC1=Nc2ccccc2C2=NC(CC(=O)NC3CCCCC3)C(=O)N12)Nc1ccc(F)cc1 (centres undefined),x,72,93,99
Cc1ccc(NC(=O)N2CCCN(c3ccc(=O)n(-c4ccc(F)cc4)n3)CC2)c(Cl)c1,-39,x,x,103
COc1ccc(NC(=O)CN2C(=O)C3CCCCN3c3ccc(C(=O)N4CCCC4)cc32)cc1 (centres undefined),-26,x,x,105
O=C(Nc1cccc(C(=O)OCc2cc(=O)n3nc(C4CC4)sc3n2)c1)c1ccc(F)cc1,x,80,89,99
Cc1sc2ncnc(SCCC(=O)O)c2c1C,-4,86,91,x
CCOc1ccc(NC(=O)c2nc3nc(C)cc(C(F)F)n3n2)cc1,-30,81,91,106
CCOC(=O)C1CCN(C(=O)CN2C(=O)C(CC)Oc3ccccc32)CC1 (centres undefined),2,103,102,111
Cn1/c(=N/N=C\c2ccccc2)sc2ccccc21,2,95,102,96
CCSc1ncc(Cl)c(C(=O)Nc2sc(C(C)=O)c(C)c2C(=O)OC)n1,-10,110,90,100
Cc1[nH]c(C)c(S(=O)(=O)N2CCC(C(=O)Nc3ccc(F)cc3)CC2)c1C(=O)N1CCCC1,-15,x,x,103
C=CCn1c(SCC(=O)N2CCCCC2)nc2scc(-c3ccc(C)o3)c2c1=O,-15,88,81,x
Cc1nn2c(=O)cc(COC(=O)c3ccc(NC(=O)CCc4ccccc4)cc3)nc2s1,x,92,81,104
CCOC(=O)c1cc(NC(=O)c2ccc(C(C)(C)C)cc2)c(=O)n2c1oc1cc(Cl)ccc12,-14,x,x,104
COc1cccc(CNC(=O)CCn2c(=O)c3cccn3c3cccnc32)c1OC,x,113,94,100
CCOc1ccc(S(=O)(=O)Nc2cccc(-c3ccc4nncn4n3)c2)cc1,-1,106,102,106
CC(O)c1ccc(-c2ccc(CNCc3ccc(F)cc3)o2)cc1 (centres undefined),-14,x,x,103
O=C(Cc1ccc(NC(=O)N2CCSc3ncccc32)cc1)NCc1cccnc1,-1,x,x,101
CCN(c1cccc(C)c1)S(=O)(=O)c1ccc2c(c1)NC(=O)CCS2,x,84,79,105
CCOC(=O)c1c(C)[nH]c(C)c1S(=O)(=O)Nc1ccc(S(N)(=O)=O)cc1,-15,x,x,104
Cn1c(SCC(=O)NC2CCCCC2)nc2sc3c(c2c1=O)CCCC3,-11,x,x,106
CCN1c2cc(C)ccc2-n2cccc2C12CCN(C(=O)c1ccc(F)cc1)CC2,-29,x,x,104
Cc1c(C(=O)O)cnc2cc(-c3ccccc3)nn12,x,108,84,115
Cc1ccccc1NC(=O)Cn1c(=O)n(CCCCCC(=O)NCc2ccccc2Cl)c(=O)c2sccc21,-1,95,80,105
COc1ccccc1CNC(=O)Cn1cnc2ccc(S(=O)(=O)N3CCC(C)CC3)cc2c1=O,x,102,86,106
CCOc1cc(/C=c2\sc3nc4ccccc4n3c2=O)ccc1OC(=O)c1ccccc1,-19,x,x,110
COC(=O)c1cc2sc3ccccc3c2s1,x,106,82,106

# Copied from the list:
# CCN(c1cccc(C)c1)S(=O)(=O)c1ccc2c(c1)NC(=O)CCS2 @ Sa growth 42C: 84
# Cc1c(C(=O)O)cnc2cc(-c3ccccc3)nn12 @ Sa growth 42C: 108
# CCN1c2cc(C)ccc2-n2cccc2C12CCN(C(=O)c1ccc(F)cc1)CC2 @ GIV-Gai inh: 104

# Next structures.
SMILES,HCMV NEC inh,Sa growth 42C,Sa growth 42C second temp,GIV-Gai inh
CC(C)CN1C(=O)C=CC1=O,-11,72,71,100
O=C(O)CCC12CC3CC(CC(Br)(C3)C1)C2,-13,92,86,x
O=C(O)C1C2C=CC(C2)C1C(=O)Nc1ccc2ccccc2c1 (centres undefined),-14,111,88,x
CSC(=CC(=O)c1ccc(Oc2ccccc2)cc1)SC,-3,104,86,101
CC1CCCC(NC(=O)c2ccccc2C(=O)O)C1C (centres undefined),-15,117,90,100
CCOc1ccc(NC(=O)C2Sc3nnc(CC)n3NC2c2ccccc2)cc1 (centres undefined),-1,x,x,102
CNC(=O)COC(=O)c1cc(-c2ccc(C)o2)nc2ccccc12,-73,97,82,x
CC(C)c1ccc(S(=O)(=O)N2CCN(c3nc4ccccc4n4cccc34)CC2)cc1,-17,x,x,103
CCCS(=O)(=O)c1ccc(NCCc2c[nH]c3ccccc23)nn1,-18,x,x,98
COC(=O)/C(C#N)=C/c1ccccc1C,2,93,78,103

# An excerpt from above with just HCMV NEC inh, Sa growth 42C second temp and GIV-Gai inh:
SMILES,HCMV NEC inh,Sa growth 42C second temp,GIV-Gai inh
CC1CCCC(NC(=O)c2ccccc2C(=O)O)C1C (centres undefined),-15,90,100
CCOc1ccc(NC(=O)C2Sc3nnc(CC)n3NC2c2ccccc2)cc1 (centres undefined),-1,x,102
CNC(=O)COC(=O)c1cc(-c2ccc(C)o2)nc2ccccc12,-73,82,x
CC(C)c1ccc(S(=O)(=O)N2CCN(c3nc4ccccc4n4cccc34)CC2)cc1,-17,x,103
CCCS(=O)(=O)c1ccc(NCCc2c[nH]c3ccccc23)nn1,-18,x,98
COC(=O)/C(C#N)=C/c1ccccc1C,2,78,103

# (more compounds)
SMILES,HCMV NEC inh,Sa growth 42C,Sa growth 42C second temp,GIV-Gai inh
O=C(Nc1ccc(Cl)cc1)c1sc2ccccc2c1Cl,x,72,90,104
CC1=CS(=O)(=O)CC1SC(=S)NC(C)C (centres undefined),x,101,88,105
Cc1ccc(Cl)cc1NC(=O)COC(=O)C1CC1,-10,94,92,x
Cc1cc(S(=O)(=O)[C@H]2CS(=O)(=O)C[C@@H]2NCCc2c[nH]c3ccccc23)ccc1F,-5,x,x,100
CC(C)(C)N(C(=O)c1cc2ccccc2o1)C(=O)N1CCCCC1,6,110,99,102
O=C(NC(Nc1cccc2ccccc12)C(=O)c1ccccc1)c1ccco1 (centres undefined),-4,105,88,x
Fc1cc(OCc2cnc(Cl)s2)ccc1Cl,-6,x,x,101
COc1cccc(C(=O)NCC(=O)N=Nc2c(O)n(Cc3ccc4c(c3)OCO4)c3ccccc23)c1,-21,110,102,100
Cc1cccc(CN2CCC(CNC(=O)c3cc4c(=O)[nH]c5ccc(C)cc5c4s3)CC2)c1,x,116,89,103
CC(C)(C)/C(=N/O)c1ccccc1,-40,91,87,105
CN1CCCC(OC(=O)c2cc(Br)ccc2Cl)C1 (centres undefined),-25,119,85,x
CCc1ccc(NC(=O)c2cn(CC)c(=O)c3cc(OC)c(OC)cc23)cc1,9,92,91,98
Cn1cnc2cc(NCc3ccncc3)ccc21,6,112,95,104
OCCOc1ccccc1OCCO,-11,108,105,108
COc1ccc(OC)c(NC(=O)c2c(NCc3ccc(N(C)C)cc3)sc3c2CCCC3)c1,x,118,103,110
COc1ccc(Br)cc1S(=O)(=O)Nc1ccc2cn[nH]c2c1,-6,70,100,x
COc1ccc(-c2csc3nc(-c4ccccc4C)oc(=O)c23)cc1OC,-47,98,95,101
Cc1ccc(NC(=O)Cc2c(C)nn(-c3nc(-c4ccccc4)cs3)c2C)cc1C,2,x,x,104
COC(=O)C1=CN(CCc2ccc(OC)cc2)C=C(C(=O)OC)C1c1ccsc1,-6,105,87,x
O=C1CCCCCN1Cc1nnc(Sc2ncnc3cc(-c4ccc(Cl)cc4)sc23)o1,-2,113,72,x
Fc1ccc(-n2ncc3c(N4CCN(c5ccccc5F)CC4)ncnc32)cc1,x,99,98,106
COC(=O)/C(O)=C/c1ccc(Cl)cc1,-8,103,93,x
CCc1cc(OC(F)F)ccc1Cl,-10,88,88,x
C=CCN1C(=O)/C(=C\N(C)C)S/C1=N/S(=O)(=O)c1cccs1,-51,95,82,106
COc1ccccc1N1CCN(c2ncnc3c2c(-c2ccccc2)cn3-c2cccc(C)c2)CC1,x,127,91,108
CCN(CC)CCCOc1ccccc1-c1ccccc1,-6,115,93,x
Cc1ccc(CNC(=O)Cn2nc(C)n3cccc3c2=O)cc1,-4,128,94,103
Cc1ccc(CCP(=O)(O)CN2CCCCC2)cn1,-4,98,87,x
Cc1ccc2n1CCn1cc(-c3ccc(Br)cc3)cc1-2,-37,111,70,135
O=C(NCCC1=CCCCC1)c1ccccc1CSc1ncn[nH]1,-8,88,91,x
O=C(Oc1ccc(NC2=NS(=O)(=O)c3ccccc32)cc1)c1ccccc1Br,-17,x,x,100
COC(=O)c1ccc(C2NN=C(c3ccccc3)S2)cc1 (centres undefined),-7,112,74,105
COc1cc2nc(N3CCN(c4cc(C)ccc4C)CC3)nc(N)c2cc1OC,-13,-0.7*,-1.0*,100
CCc1ccc(NC(=O)Cn2c(=O)n(Cc3ccco3)c(=O)c3oc4ccccc4c32)cc1,x,110,101,100
COc1cc(OC)c(NC(=O)c2ccc(-n3cnc4cccnc43)cc2)cc1Cl,-10,98,91,109&99
O=C1NC(=Nc2ccccc2)S/C1=C/c1ccc(F)c(Br)c1,-20,x,x,105
COC(=O)c1ccc(/C=C2/NC(=O)N(Cc3ccc(Br)cc3)C2=O)cc1,x,122,87,104
Cc1cn2c(=O)c(S(=O)(=O)NCc3ccc(F)cc3)c(C)nc2s1,x,125,86,105
COc1cc(NC(=O)C(CCS(C)(=O)=O)N2Cc3ccccc3C2=O)cc(OC)c1OC (centres undefined),x,116,87,99
Cc1nnc(NC(=O)COc2ccccc2-c2nc(-c3ccccc3C)no2)s1,-27,x,x,102
CCOC(=O)CSc1cc(-c2ccccc2)nc2ncnn12,-2,91,69,99
CCOC(=O)c1c(C)[nH]c(CCC(=O)Nc2ccc(Cl)cc2C)c1C,x,76,91,102
NC(N)=NN=C1CCC(=NN=C(N)N)CC1,-33,63,75,95
Cc1cc(OCc2nc(-c3ccncc3)no2)c(C)cc1Br,-10,127,66,109
CCCCCOc1ccc2oc(=O)c3c(c2c1)CCCN3C(=O)CN1CCOCC1,-29,89,83,103
Cc1cc(C)cc(N2CCn3c2nc2c3c(=O)n(CC(=O)O)c(=O)n2C)c1,26,x,x,99
COc1ccc(C)cc1NC(=O)C(C)N1CCOCC1 (centres undefined),-17,114,85,105
O=C(NC1CCCC1)C1=COCCO1,-35,109,82,x
CCOc1ccc(CCNC(=O)c2cn(CC)c3nc(C)ccc3c2=O)cc1OCC,x,84,82,102
Cc1nnc(NC(=O)C23CC4CC(CC(C4)C2)C3)s1,-9,91,86,x
CC(=O)Nc1cccc(-c2cc(=O)c3ccccc3o2)c1O,-51,100,81,x
